# CBX7 AlphaScr: blocks human CBX7 binding to H3K27me3 peptide; O95931; AlphaScreen His6-CBX7 / biotin-H3K27me3 peptide binding; stronger effect = lower value; normalised signal (fraction of DMSO) (test concentration not listed); actives 1.1% (n = 66,000); AID 1224903; in the data active = normalised signal below about 0.5;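 also: 100 nL library stock added to about 20 µL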
# Target sequence (O95931 whole entry, looked up): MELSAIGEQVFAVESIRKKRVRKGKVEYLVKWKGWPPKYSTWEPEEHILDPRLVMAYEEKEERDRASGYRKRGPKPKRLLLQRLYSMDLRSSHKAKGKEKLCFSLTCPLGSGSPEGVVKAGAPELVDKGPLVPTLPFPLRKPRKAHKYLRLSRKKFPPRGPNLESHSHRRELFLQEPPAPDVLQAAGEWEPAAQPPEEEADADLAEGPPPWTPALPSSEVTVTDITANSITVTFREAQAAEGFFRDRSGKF
# CBX7 AlphaScr z-score: recorded beside CBX7 AlphaScr, whose call it bears; z-score; measured here: z-score of CBX7 signal; some inactives read as strong as hits; reference of the scale not given here;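 same signal on another scale; lower means less binding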
# Numbers without * were called inactive; & = joins results of further samples. A portion of the library; the hit share may differ from the screen's.
canonical_smiles,CBX7 AlphaScr,CBX7 AlphaScr z-score
Cc1ccc(C2=NN(CCC(=O)NCCCN3CCC(Cc4ccccc4)CC3)C(=O)CC2)cc1,1.1,1.41
CC(C)(C)OC(=O)N1CCC(c2c(C(=O)Nc3ccc(F)cc3)cnn2-c2ccccc2)CC1,0.943,-2
COc1ccc(NC(=O)c2c(NCc3cccc(OC)c3OC)sc3c2CCCCC3)cc1,0.731,-13.9
CCOC(=O)N1CCN(c2c(NCCc3ccc(S(N)(=O)=O)cc3)c(=O)c2=O)CC1,0.973,-0.486
CC(C)C(=O)Nc1c(C(=O)Nc2cccc(F)c2)oc2ccccc12,0.977,-0.299
CCN(CC)S(=O)(=O)c1ccc2c(c1)N(CC(=O)Nc1ccccc1Cl)C(=O)CS2,1.01,0.458
CC(=O)N1CCc2cc(S(=O)(=O)NCCN3CCN(c4ccccc4F)CC3)ccc21,1.15,1.09
COc1ccc(NS(=O)(=O)c2ccc3c(c2)n(C)c(=O)c(=O)n3C)cc1Cl,0.96,-0.61
COc1ccc(-c2nn(C)c3sc(C(=O)Nc4cccc(SC)c4)cc23)cc1OC,0.91,-1.15
Cc1ccc2c(c1)c(C)nn2Cc1ccccc1Cl,1.07,3.03
NC(=O)Cn1nc(-c2ccc(Cl)cc2)c2ccccc2c1=O,1.01,0.0632
CCOc1ccc(NC(=O)c2ccccc2)c(NC(=O)c2c(-c3ccccc3Cl)noc2C)c1,1.07,2.18
O=C(NCC1CCCO1)c1nn2c(C(F)(F)F)cc(-c3ccccc3)nc2c1Cl (configuration not stated),1.01,0.62
CCOc1ccc(NS(=O)(=O)c2ccc3c(c2)CCN3C(C)=O)cc1,0.987,-0.411
CCc1ccc(NC(=O)N(CCN(C)C)C(C)c2cccnc2)cc1 (configuration not stated),1.03,1.72
Cc1ccc(S(=O)(=O)Nc2ccc3oc4c(c3c2)C(=O)CC(C)(C)C4)cc1,1.01,0.388
COc1ccccc1C(=O)c1nc(-c2ccc(Cl)cc2)no1,1.13,4.99
CCCCCc1nnc(NC(=O)c2ccccc2O)s1,1.14,3.15
Cc1noc(C)c1S(=O)(=O)N1CCCC(C(=O)N2CCCCC2)C1 (configuration not stated),1.03,0.232
O=C(NCC1COc2ccccc2O1)c1ccc2c(c1)N(Cc1ccc(F)cc1Cl)C(=O)CS2 (configuration not stated),1.02,0.911
CC(=O)N1CCc2cc(S(=O)(=O)N3CCN(Cc4ccc5c(c4)OCO5)CC3)ccc21,0.924,-2.47
COc1ccc(Cl)cc1C(=O)N(Cc1nc(-c2cccc(C)c2)no1)C(C)C,0.779,-2.19
CC(C)c1ccc(Nc2c(-c3ccccn3)nc3ccccn23)cc1,0.211*,-31.8*
CCOC(=O)c1ccc(NC(=O)c2sc3nc(-c4ccccc4)cn3c2C)cc1,0.929,-1.36

# Retrieved by compound from above, 4 records:
canonical_smiles,CBX7 AlphaScr,CBX7 AlphaScr z-score
O=C(NCC1COc2ccccc2O1)c1ccc2c(c1)N(Cc1ccc(F)cc1Cl)C(=O)CS2 (configuration not stated),1.02,0.911
CCOc1ccc(NS(=O)(=O)c2ccc3c(c2)CCN3C(C)=O)cc1,0.987,-0.411
O=C(NCC1CCCO1)c1nn2c(C(F)(F)F)cc(-c3ccccc3)nc2c1Cl (configuration not stated),1.01,0.62
CC(=O)N1CCc2cc(S(=O)(=O)N3CCN(Cc4ccc5c(c4)OCO5)CC3)ccc21,0.924,-2.47

# Further results follow.
canonical_smiles,CBX7 AlphaScr,CBX7 AlphaScr z-score
O=C(Nc1cc(C(F)(F)F)ccc1Cl)C1CCN(c2nnc(-n3cccc3)s2)CC1,1.14,1.45
CC(C)N1C(=O)C(O)(CC(=O)c2ccccc2)c2ccccc21 (configuration not stated),0.994,-0.00693
CCn1cc(C(=O)Nc2cccc(OC)c2)c(=O)c2ccc(C)nc21,1.06,0.672
COc1ccc(NC(=O)CC2OCCN(C)C2=O)cc1 (configuration not stated),0.986,-0.267
O=C(Nc1cccnc1)C1CCN(S(=O)(=O)c2cccc3cccnc23)CC1,0.99,-0.125
CCc1cccc(C)c1NC(=O)C1CCN(c2nnc(-n3cccc3)s2)CC1,1.02,0.619
Cc1ccc(CNCCNc2ccc3nnc(CCC(=O)Nc4ccc(C)c(C)c4)n3n2)cc1,1.12,1.99
COC(=O)c1ccc(N2C(=O)CC(NCc3ccc(Cl)cc3)C2=O)cc1 (configuration not stated),1,0.0293
CCOc1ccc(-c2cc(C(=O)NCCc3ccccc3)c3ccccc3n2)cc1,0.994,-0.141
CCCCCCCCCCOc1ccc(NC(=O)NCCOc2ccc(OC)cc2)cc1,0.983,-0.194
Cc1oc(-c2ccc(Cl)cc2)nc1CN1CCCC(C(=O)NCCC2=CCCCC2)C1 (configuration not stated),0.988,-0.343
CCN1CCN(CCCNC(=O)Cn2ncc3c2-c2ccccc2OC3)CC1,0.988,-0.352

# Given with values under each structure: part of the list above.
# Each structure is followed by: CBX7 AlphaScr, CBX7 AlphaScr z-score
CCOc1ccc(-c2cc(C(=O)NCCc3ccccc3)c3ccccc3n2)cc1
 : 0.994, -0.141
CCCCCCCCCCOc1ccc(NC(=O)NCCOc2ccc(OC)cc2)cc1
 : 0.983, -0.194
Cc1oc(-c2ccc(Cl)cc2)nc1CN1CCCC(C(=O)NCCC2=CCCCC2)C1 (configuration not stated)
 : 0.988, -0.343

# The list continues.
canonical_smiles,CBX7 AlphaScr,CBX7 AlphaScr z-score
Cc1ccc(CCNC(=O)C2CCN(S(=O)(=O)c3cccc4nonc34)CC2)cc1,1.02,0.421
O=C(c1cc(-c2ccc3c(c2)OCO3)on1)N1CCCCCC1,0.923,-0.602
COc1ccc(-c2cc(C(F)(F)F)nc(-n3c(C)nc4ccccc43)n2)cc1,1.1,2.48
O=C(NCc1ccccc1)C(=O)c1c(-c2ccccc2)[nH]c2ccccc12,1.06,0.994
CCCCNc1nc(-c2ccccc2)cc(C(F)(F)F)c1C(N)=O,0.915,-1
Cc1cccc(-c2nc3c(cnn3-c3ccccc3)c(=O)n2-c2cccc(C)c2)c1,0.806,-7.66
COc1cccc(-c2nc(CS(=O)(=O)CC(=O)Nc3ccc(Br)cc3F)c(C)o2)c1,1.06,1.7
Cn1cc(CCCC(=O)NCc2ccccc2)c2ccccc21,0.609,-6.75
Cc1cccc2nc(-c3ccccn3)c(Nc3ccc4c(c3)OCCO4)n12,0*,-21.6*
Cc1ccc(NC(=O)CN(C)S(=O)(=O)c2cccc3cccnc23)c(C)c1,0.827,-2.05
CC(C)(C)c1ccc(-c2nnc(SCC(=O)N3CCCCC3)o2)cc1,1.1,1.04
Cc1ccc(Nc2nc(-c3ccc(Cl)cc3)cs2)cc1C,0.775,-3.56

# (more compounds)
SMILES,CBX7 AlphaScr,CBX7 AlphaScr z-score
CC1CCN(S(=O)(=O)c2ccc3c(c2)N(CC(=O)NC2CC2)C(=O)CS3)CC1,0.829,-1.85
COc1ccc(C2=NOC(C(=O)NCc3ccccc3)C2)cc1OC (configuration not stated),1.04,1.55
CCOCCCn1nnc2c(=O)[nH]c(C(=O)NCc3cccc(Cl)c3)nc21,0.953,-1.06
CCN(C(=O)c1cnc(N2CCN(c3ccccc3OC)CC2)c2ccccc12)c1ccc(F)cc1,0.843,-3.04
CCCCNC(=O)CNC(=O)Cn1cnc2c(c1=O)C1CCCCC1S2 (configuration not stated),0.815,-2.45
Nc1nonc1-c1nc2ccccc2n1CCCc1nn[nH]n1,0.973&1.05,-1.4&2.22
CCN(CC)C(C(=O)Nc1ccc2c(c1)OCCO2)c1ccccc1 (configuration not stated),0.821,-3.82
CCN(CC)S(=O)(=O)c1ccc(C(=O)Nc2c3c(nn2-c2ccc(Cl)cc2)CSC3)cc1,0.896,-2.57
Cc1ccc(NC(=O)c2oc3ccc(S(=O)(=O)N4CCCC4)cc3c2C)cc1C,0.977,-0.899
CCOc1ccc(Nc2cc(C(=O)NCc3ccc(C)cc3)c3ccccc3n2)cc1,0.968,-0.885
O=C(NCC1(c2ccccc2)CCOCC1)C1COc2ccccc2O1 (configuration not stated),1.03,0.985
CCOc1ccc(-n2nc(C(=O)Nc3c(F)cccc3F)c3ccccc3c2=O)cc1,1.05,0.891
O=C(C1CCC1)N1CCc2cc(S(=O)(=O)N3CCOCC3)ccc21,1.11,3.68
Cc1ccc(CNC(=O)COc2ccc3c(c2)C(=O)CC2(CCCCC2)O3)cc1,0.685,-3.55
COc1ccc(C)cc1NC(=O)CCc1nc2ccccc2[nH]1,1.05,1.85
O=C(Nc1c(-c2ccc(F)cc2)nc2ccccn12)c1c(F)cccc1F,1.03,0.778
O=C(CSCc1cnn(-c2ccccc2)c1-n1cccc1)N1CCC2(CC1)OCCO2,1.04,1.9
O=C(CN1CCCN(Cc2ccc(F)cc2Cl)C1=O)NCc1cccnc1,0.995,-0.0742
COCCNC(=O)C1CC(c2cccc(OC)c2)=NO1 (configuration not stated),1.09,1.17
CCCOc1ccccc1C1CC(=O)Nc2cc3c(cc21)OCO3 (configuration not stated),0.663,-4.34
CCN1CCN(CCCNC(=O)c2cc3c(s2)-c2ccccc2OC3)CC1,1.06,2.73
Nc1nonc1-c1noc(Cc2ccccc2)n1,0.963,-0.363
COc1cccc(C2=NOC(C(=O)Nc3cc(C)on3)C2)c1OC (configuration not stated),1.02,0.66
CC1CCN(c2nc3ccc(C(=O)NCCCN4CCN(C5CCCCC5)CC4)cc3s2)CC1,1.4,3.71
CCOC(=O)c1c(C)n(CCOc2ccc(OC)cc2)c2ccc(O)cc12,0.97,-0.309
COC(=O)c1cc2occc2n1CC(=O)Nc1ccc(N(C)C)cc1,0.911,-2.62
COc1cc2ccccc2cc1C(=O)Nc1ccccc1-c1nc2ccccc2s1,1.07,1.89
Cc1cc(C)c2oc(-c3ccc(NC(=O)c4ccc(Br)cc4)cc3)nc2c1,1.03,0.0341
CC(C)c1ccc(NC(=O)C(c2ccccc2)N2CCCC2)cc1 (configuration not stated),1.07,0.45
Cc1ccccc1NC(=O)C1CCN(S(=O)(=O)c2cccs2)CC1,1.02,0.384
NC(=O)c1oc2ccccc2c1NC(=O)c1ccc(Cl)cc1,0.959,-0.96
CC1=Nc2cc(C(=O)NC(C)c3ccccc3)ccc2Sc2ccccc21 (configuration not stated),0.731,-0.268
O=C(c1cc2ccccn2n1)N1CCc2ccccc2C1,1,0.0212
COCCNC(=O)c1ccc2c(c1)nc(C)n2-c1ccccc1OC,0.995,-0.125
Cc1ccccc1Cc1c(C)nc2nc(SCC(=O)NCCN3CCCCCC3)nn2c1C,1.3,1.73
Cc1onc(-c2ccccc2)c1C(=O)Nc1ccc(I)cc1,1.01,0.16
CCOc1cccc(CNc2cc(-c3nc4cc(Cl)ccc4o3)ccc2C)c1O,0.988,-0.31
O=C(C1CC1)N1CCc2cc(S(=O)(=O)NCCC3=CCCCC3)ccc21,1.06,1.88
Cc1ccc2c(c1)NC(=O)C(CC(=O)NCCCN1CCN(C3CCCCC3)CC1)O2 (configuration not stated),1.01,0.353
CCN(CCCNC(=O)C1CC(=O)N(c2ccc(F)c(Cl)c2)C1)c1cccc(C)c1 (configuration not stated),0.54,-9.12
COc1ccc(CCNC(=O)CCNS(=O)(=O)c2ccc3c(c2)CCC(=O)N3)cc1OC,1.03,1.52
COC(=O)c1cc2sc(Cl)cc2n1Cc1cc(=O)n2ccccc2n1,1.06,1.76
CC12C=CC3(CN(Cc4ccccc4)C(=O)C3C1C(=O)NCCc1ccc(Cl)cc1)O2 (configuration not stated),1.04,0.0855
CCOc1ccc(-c2cc(CCCC(=O)Nc3cccc(OC)c3)no2)cc1,0.952,-1.21
CCN(c1cccc(C)c1)S(=O)(=O)c1ccc2[nH]cc(C(=O)NCCC3=CCCCC3)c(=O)c2c1,1.01,0.103
CCCN(CCC)CCNC(=O)C1c2cc(OC)c(OC)cc2C(=O)N(C)C1c1ccccc1F (configuration not stated),1.12,2.2
COc1ccc(-c2nnn(CC(=O)Nc3c(C)cccc3C)n2)cc1,1.07,2.5
Cc1cccc(CN2C(=O)c3ccccc3S(=O)(=O)c3ccc(C(=O)NCCCN4CCCC4)cc32)c1,0.987,-0.141
COc1ccccc1C(=O)NCCN=C1NS(=O)(=O)c2ccccc21,1.02,0.592
COc1ccc(C2Nc3ccc4ncccc4c3C3=C2C(=O)CC(C)(C)C3)cc1 (configuration not stated),1.18,2.12
COc1ccc(N2CCN(C(=O)c3ccc4nc(N5CCC(C)CC5)sc4c3)CC2)cc1,0.915,-0.797
COc1cccc(NC(=O)Cn2c(-c3ccccc3F)nc3ccccc3c2=O)c1,0.897,-2.18
CCOc1ccccc1N(CC(=O)N1CCN(c2ccccc2)CC1)S(=O)(=O)c1ccccc1,0.952,-0.492
COc1ccccc1NC(=O)C1CCN(S(=O)(=O)c2ccc(C)cc2)CC1,1.01,0.615
Cc1ccc(-n2ncc(C(=O)Nc3ccc(C)cc3C)c2C2CCNCC2)cc1,0.979,-0.278
CCC1Oc2ccc(C)cc2N(CC(=O)N2CCN(C)CC2)C1=O (configuration not stated),0.984,-0.397
Cc1cccc(OCc2nc(-c3nonc3N)no2)c1C,1.03,0.719
O=C(CN1C(=O)COc2ccc(S(=O)(=O)N3CCCC3)cc21)NCCCc1ccccc1,0.976,-0.684
COc1cccc(CNc2nc3ccccc3n2CCN2CCCCC2)c1OC,0.936,-2.06
O=C(Nc1ccc2snnc2c1)N1CCN(c2ccccc2)CC1,0.973,-1.06

# Next part:
SMILES,CBX7 AlphaScr,CBX7 AlphaScr z-score
CC(=O)N1c2ccccc2CCc2ccc(N)cc21,0.888,-2.2
C(=C\c1ccccc1)/CSc1nnc(-c2ccncc2)o1,0.985,-0.447
CCN1CCCC1CNC(=O)Cn1nc(Cc2ccncc2)c2ccccc2c1=O (configuration not stated),0.934,-0.781
COc1ccc(NC(=O)c2cn(-c3ccc(Cl)cc3)c(=O)c3ccccc23)cc1Cl,0.991,-0.286
